# Autofluor counter = flagged as autofluorescent in microsphere protease counterscreen; compound autofluorescence counterscreen, microsphere flow cytometry; stronger effect = higher value; fluorescence intensity (concentration not given with the values); 360,000 tested, 3.1% active; AID 624483;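 active means at least 3 SD above the mean of all compounds, about 16000 in these data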;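 further: 100 nL of 1 mM stock went into each well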
# Numbers without * were called inactive. This is a subset. The share of hits here may be higher or lower than overall.
SMILES,Autofluor counter
CNc1ccc(-c2cccc(CO)c2)cn1,3873
COc1ccc(-c2nc3c4ccccc4ccn3c2CC2CCCCC2)cc1OC,4440
CCCS(=O)(=O)NC(=O)C1(C)CCN(C(=O)c2ccc3ccccc3c2)C1 (stereo unspecified),3069
O=C(c1cc2c(c(-c3cccc(-c4ccc(F)cc4)c3)n1)[C@H](CCO)N(C(=O)c1ccc3c(c1)OCO3)C2)N1CCOCC1,6307
COc1cccc(-c2cccc3c2NC(=O)C3(C)Cc2cccc(F)c2)c1 (stereo unspecified),3649
O=C(O)c1ccc(N2C(=O)c3ccccc3C2=O)cc1[N+](=O)[O-],2954
CC1(C(=O)Nc2cccc(Oc3ccccc3)c2)CCN1Cc1ccccc1Cl (stereo unspecified),2960
CNc1ccc(-c2cccc(C#N)c2)cn1,3605
O=S(=O)(NCCS(=O)(=O)N1CCN(c2ccc(F)cc2)CC1)c1ccccc1,2948
O=C(NCCc1ccccc1)c1[nH]c(C(F)(F)F)nc1-c1ccccc1,5622

# Reformatted with each value named: part of the list above.
> O=C(c1cc2c(c(-c3cccc(-c4ccc(F)cc4)c3)n1)[C@H](CCO)N(C(=O)c1ccc3c(c1)OCO3)C2)N1CCOCC1
  Autofluor counter = 6307
> COc1cccc(-c2cccc3c2NC(=O)C3(C)Cc2cccc(F)c2)c1 (stereo unspecified)
  Autofluor counter = 3649
> O=C(O)c1ccc(N2C(=O)c3ccccc3C2=O)cc1[N+](=O)[O-]
  Autofluor counter = 2954
> CC1(C(=O)Nc2cccc(Oc3ccccc3)c2)CCN1Cc1ccccc1Cl (stereo unspecified)
  Autofluor counter = 2960

# Further structures follow:
SMILES,Autofluor counter
O=C(Nc1ccc(F)c(Cl)c1)c1cc(C2CCCN(C(=O)CCc3ccccc3)C2)on1 (stereo unspecified),2943
Cc1noc(C)c1C(=O)N1CCC1(C)C(=O)NS(=O)(=O)c1ccccc1C(F)(F)F (stereo unspecified),4474
O=C1CC=Nc2ccc([N+](=O)[O-])cc21,3530
Cc1ccc([C@H]2N[C@]3(CCCN(CC4CCCCC4)C3=O)[C@H]3C(=O)N(C)C(=O)[C@@H]23)cc1,3840
CC(C)C1OC(CCc2ccccc2)Cc2[nH][nH]c(=O)c21 (stereo unspecified),5653
CCOC(=O)C1=CCN(S(=O)(=O)c2ccccc2F)C1c1cccc(C)c1 (stereo unspecified),5933
COC(=O)[C@@]1(Sc2ccc(C)cc2)CC(=O)N[C@@H]1c1ccccc1,5183
COCCNc1nc(Oc2ccc(C(N)=O)cc2)c2sccc2n1,2938
C[C@H]1CN([C@@H](C)CO)C(=O)CCCn2nncc2CO[C@H]1CN(C)C(=O)C1CCCCC1,2960
CC1(C)N=C(N)N=C(N)N1c1ccc(OCC(=O)N2CCOCC2)c(Cl)c1,3808
CCCC(=O)N1CCCC1(C)C(=O)Nc1ccc2nc(C)ccc2c1 (stereo unspecified),3878
C[C@H](c1ccccc1)N1C[C@H](COCc2ccccc2)Oc2cc(N3CCC[C@@H]3CO)ccc2S1(=O)=O,6641
CSC1=NC=C(C#N)C2=NC(c3c(Cl)cccc3Cl)NN12 (stereo unspecified),4332
COc1cc(/C=C/CNC[C@H]2O[C@@H](n3cc(C)c(=O)[nH]c3=O)C[C@@H]2O)ccc1O,3615
CC(C)NC(=O)c1cc(C2CCCCN2S(=O)(=O)c2cccc3cccnc23)on1 (stereo unspecified),3681
C#CCNC(=O)c1csc([C@@H]2O[C@H](CO)[C@@H](O)[C@H]2O)n1,2843
Cc1cc2nc(-c3ccco3)c(CC(C)(C)C)n2c(C)c1Br,5646
COc1ccc([C@H]2N[C@]3(CCCN(CC4CCCCC4)C3=O)[C@H]3C(=O)N(Cc4ccccc4)C(=O)[C@@H]23)cc1,3674
O=P(c1ccccc1)(c1ccccc1)c1ccccc1C(Br)Br,3065
CCOc1ccc(CCN2C(=O)C(=O)N([C@@H](CC(C)C)CN3CCC[C@@H]3CN3C(=O)C(=O)NC[C@@H]3CC(C)C)C[C@@H]2Cc2ccccc2)cc1,5951
CC1(C(=O)NS(=O)(=O)c2cccc(Cl)c2)CCN1C(=O)c1ccccc1 (stereo unspecified),3457
COc1cccc(S(=O)(=O)N(C)C[C@H]2OCc3cn(nn3)CCCC(=O)N([C@@H](C)CO)C[C@@H]2C)c1,4306
Cc1ccc2cc(F)c(F)c(F)c2n1,5530
O=C(NCC(c1ccco1)N1CCN(c2ccccc2)CC1)C1CCCCC1 (stereo unspecified),3968
CC1(C)OC(=O)C2=C(C[C@@H](C3CC3)O[C@H]2CCc2cccc(Cl)c2)O1,6147
Cc1cc(C)c(S(=O)(=O)N(C)CC(=O)N2CCCC2)c(C)c1,3932
CCCNC(=O)C1(C)CCN(Cc2ccc(-c3ccccn3)cc2)C1 (stereo unspecified),3671
COc1ccc(C(O)c2ncc(-c3ccc4ccccc4c3)[nH]2)cc1 (stereo unspecified),3851
CCOc1ccc(CNC(=O)CN2C(=O)CSc3ccc(S(=O)(=O)N4CCOCC4)cc32)cc1,3455
CCCC[C@@H]1Cc2[nH][nH]c(=O)c2[C@H](c2cccc3ccccc23)O1,5904
CC(=O)Nc1cccc(Oc2nc(NCCN(C)C)nc3ccsc23)c1,3886
O=C(CCNC(=O)N1CC(=O)Nc2ccccc21)NCc1ccccc1,3367
COc1ccc(Cl)cc1-c1cc(C(=O)N[C@H](C)c2ccccc2)[nH]n1,2996
O=C(NCC1=C(c2cccc3ccccc23)C[C@@H]2CC[C@H]1N2Cc1ccco1)c1ccc([N+](=O)[O-])cc1,3778
CCN(CCO)CC1CCCC2CCCCC21 (stereo unspecified),4424
CC(C)NC(=O)C1(C)CCN1C(=O)c1ccccc1F (stereo unspecified),2934
C[C@@H]1CN([C@@H](C)CO)C(=O)CCCn2nncc2CO[C@@H]1CN(C)S(=O)(=O)c1cccs1,3966
CCCCn1nnnc1C(c1cc2ccccc2o1)N1CCN(c2ccccc2F)CC1 (stereo unspecified),4337
CC(=O)Nc1cccc(NC(=O)C(=O)c2cn(CC(=O)N3CCCC3)c3ccccc23)c1,3752
Cc1ccc(C)c(C(O)c2ncc(-c3ccccc3Cl)[nH]2)c1 (stereo unspecified),3784
NC(=O)c1cccc(-c2csc(C(O)c3ccccc3)n2)c1 (stereo unspecified),3486
CC(=O)NC[C@H]1O[C@@H](n2ccc(N)nc2=O)[C@H](O)[C@@H]1O,3889
c1ccc(-c2nc3c4ccccc4ccn3c2CC2CCCCC2)cc1,6551
COc1ccc(S(=O)(=O)NC(=O)C2(C)CCN2C(=O)Cc2cccc3ccccc23)cc1 (stereo unspecified),3863
CCOC(=O)c1ccc(NC(=O)Nc2nncs2)cc1,3385
CC(=O)N1CCc2c(sc(NC(=O)c3ccc(S(=O)(=O)N(C)CC4CCCO4)cc3)c2C(N)=O)C1 (stereo unspecified),3422
COc1cccc(OC2(C)CCN(Cc3ccc(-c4ccccn4)cc3)C2)c1 (stereo unspecified),3780
CC1(C(=O)NS(=O)(=O)c2ccccc2C(F)(F)F)CCN1C(=O)CC1CCCC1 (stereo unspecified),3758
Cc1cc(C)cc(C(O)c2ncc(-c3ccc(Cl)cc3)[nH]2)c1 (stereo unspecified),2940
CCc1nc2ccc(C(=O)N3CCN(C(=O)c4ccco4)CC3)cn2c1N(C)C(=O)Nc1ccccc1OC,3840

# (listing goes on)
SMILES,Autofluor counter
CCCC(=O)N1CCCC1(C)C(=O)Nc1ccc2c(c1)CCN2C(C)=O (stereo unspecified),3319
CCOC(=O)[C@]12CCC=C1N(Cc1ccc(Cl)cc1Cl)C(=O)[C@H](CC(=O)NCc1cccc3ccccc13)C2,6305
O=C1NC[C@@H](CCCCN2C[C@H](Cc3ccccc3)N(CC3CCCCC3)C(=O)C2=O)N(CC2CCCCC2)C1=O,5794
COc1ccc(OC)c(NC(=O)C2(C)CCN2Cc2cccc(OC)c2F)c1 (stereo unspecified),3792
CCc1nc2ccc(C(=O)N3CCCCC3)cn2c1N(C)CCCc1ccccc1,3645
CCCCCCCCN1C(=O)[C@H](CC(=O)NCCCOCCCC)C[C@@]2(C(=O)OCC)CCCC=C12,5541
O=C(CCCc1ccc(N(CCCl)CCCl)cc1)NCc1ccccc1,3836
O=C(NCc1cc(Cl)cc(Cl)c1)c1ccc2nc(COCCO)[nH]c2c1,3763
COc1cccc(-c2cnc3c(NC=O)cc(-c4ccc(N(C)C)cc4)cn23)c1,3831
Nc1[nH]c(C(=O)c2ccccc2)c(-c2c(F)cccc2F)c1C(=O)c1ccc(Cl)c(Cl)c1,4249
CCCc1cc(C(=O)Nc2cccc(-c3nn[nH]n3)c2)sc1C,3568
CC(=O)N1CCN(Cc2cc(=O)oc3ccc4ccccc4c23)CC1,6888
COc1ccc([C@@H]2[C@@H](C)N(c3ccccc3)c3ccccc3C(=O)N2Cc2ccccc2)cc1,3858
COCOCCn1cc(CN2CCS(=O)(=O)N(Cc3ccc(-c4ccccc4)cc3)C(CC(C)C)C2=O)nn1 (stereo unspecified),3857
Cc1ccccc1S(=O)(=O)NC(=O)C1(C)CCN1C(=O)C/C=C/c1ccccc1 (stereo unspecified),3733
CC(=O)Nc1cccc(-c2ccnc3c2CC(C(=O)Nc2ccc(C(C)C)cc2)O3)c1 (stereo unspecified),3735
Cc1cc(NC(=O)C2(C)CCN2C(C)C)c2ccccc2n1 (stereo unspecified),3015
O[C@H]1C[C@H](c2ccccc2)N(Cc2cccs2)C[C@@H]1n1cc(C2CC2)nn1,3035
O=C1NC[C@H](CCCCN2C[C@H](Cc3ccc(O)cc3)N(Cc3ccccc3)C(=O)C2=O)N(CC2CCCCC2)C1=O,4577
CC(=O)NCC1=C(c2cccc3ccccc23)C[C@@H]2CC[C@H]1N2Cc1ccco1,3591

# Reprinted from the entries so far (six entries):
SMILES,Autofluor counter
CCCc1cc(C(=O)Nc2cccc(-c3nn[nH]n3)c2)sc1C,3568
CC(=O)N1CCN(Cc2cc(=O)oc3ccc4ccccc4c23)CC1,6888
COc1ccc([C@@H]2[C@@H](C)N(c3ccccc3)c3ccccc3C(=O)N2Cc2ccccc2)cc1,3858
COCOCCn1cc(CN2CCS(=O)(=O)N(Cc3ccc(-c4ccccc4)cc3)C(CC(C)C)C2=O)nn1 (stereo unspecified),3857
Cc1ccccc1S(=O)(=O)NC(=O)C1(C)CCN1C(=O)C/C=C/c1ccccc1 (stereo unspecified),3733
CC(=O)Nc1cccc(-c2ccnc3c2CC(C(=O)Nc2ccc(C(C)C)cc2)O3)c1 (stereo unspecified),3735

# A second format for four compounds above.
Compound | Autofluor counter
Cc1ccccc1S(=O)(=O)NC(=O)C1(C)CCN1C(=O)C/C=C/c1ccccc1 (stereo unspecified) | 3733
CCCc1cc(C(=O)Nc2cccc(-c3nn[nH]n3)c2)sc1C | 3568
CC(=O)NCC1=C(c2cccc3ccccc23)C[C@@H]2CC[C@H]1N2Cc1ccco1 | 3591
COc1ccc([C@@H]2[C@@H](C)N(c3ccccc3)c3ccccc3C(=O)N2Cc2ccccc2)cc1 | 3858

# (listing goes on)
SMILES,Autofluor counter
COc1ccc(NC(=O)COC(=O)C2COc3ccccc3O2)cc1OC (stereo unspecified),3841
Cc1ccc([C@@H]2CC(=O)[C@@H]3CN(S(=O)(=O)c4ccc(C)cc4)[C@H](c4ccc(Cl)cc4)C[C@@H]3N2S(=O)(=O)c2ccc(Cl)cc2)cc1,2977
O=C1C(=Cc2ccccc2Cl)CCc2ccccc21,4861
CC(=O)NCCNC(=O)C1(C)Cc2c(-c3cccc(C(F)(F)F)c3)ccnc2O1 (stereo unspecified),3912
O=C(NCc1ccccc1)c1cc(C2COCCN2C(=O)C/C=C/c2ccccc2)on1 (stereo unspecified),3920
CCC(=O)N(C)C[C@H]1Oc2cc(-c3ccccc3F)ccc2S(=O)(=O)N([C@H](C)CO)C[C@H]1C,3542
Cc1cccc(S(=O)(=O)NC(=O)C2(C)CCN2C(=O)Cc2ccc(Cl)cc2Cl)c1 (stereo unspecified),3870
C#CCNC(=O)C[C@@H]1C[C@@]2(C(=O)OCC)CCCC=C2N(Cc2ccco2)C1=O,4248
C[C@@H]1CN([C@H](C)CO)C(=O)CCCn2cc(nn2)CO[C@H]1CN(C)S(=O)(=O)c1cccs1,6354
CN(C)CCCNC(=O)OC1CC2CC1[C@H]1CCCCN1C2=O (stereo partly specified),4937

# Grouped by structure: those above containing bromine
SMILES,Autofluor counter
Cc1cc2nc(-c3ccco3)c(CC(C)(C)C)n2c(C)c1Br,5646
O=P(c1ccccc1)(c1ccccc1)c1ccccc1C(Br)Br,3065

# Remaining list, next part:
SMILES,Autofluor counter
O=C1NC[C@@H](CCCCN2C[C@H](Cc3ccccc3)N(CCC3CCCCC3)C(=O)C2=O)N(CC2CCCCC2)C1=O,4237
CCOC(=O)C1(C)CCN1C(=O)Cc1ccc(OC)cc1 (stereo unspecified),4272
COc1ccc(C(c2nnnn2-c2ccc(OC)cc2)N2CCC(n3c(=O)[nH]c4ccccc43)CC2)cc1 (stereo unspecified),5611
CC1(C(=O)NS(=O)(=O)c2ccc(Cl)cc2)CCN1C(=O)CC1CC1 (stereo unspecified),3377
Cn1nc(C(C)(C)C)cc1C(=O)N1CCCC(C)(C(=O)NS(=O)(=O)C2CC2)C1 (stereo unspecified),2937
O=C1c2ccccc2C(c2nnnn2-c2ccc3c(c2)OCCO3)N1CCCn1ccnc1 (stereo unspecified),6135
CCn1c(SCC(=O)NC2CC2)nnc1-c1ccccc1,3393
CCCCN1C(=O)C(CC(=O)NC(c2ccccc2)c2ccccc2)CC(C(=O)N(C(C)C)C(C)C)=C1C (stereo unspecified),3888
COc1ccc(-c2ccc(C(=O)NCCN3CCOCC3)c3occc23)c(C)c1,3623
O=C(CSc1n[nH]c(=O)n1CCc1ccccc1)NC1CCCC1,3514
OC[C@@H]1CN(Cc2cccc(C(F)(F)F)c2)C[C@H](n2cnc3c(NCc4ccc(F)cc4)ncnc32)O1,2919
